# Assay outcomes (PubChem BioAssay)
# Rango release inh = qHTS Assay for Inhibitors of RanGTP induced Rango (Ran-regulated importin-beta cargo) - Importin beta complex dissociation; hit rate 0.071% among 340,000; Potency, µM (titrated, usually from 46.1 µM), for the others: at the highest dose activity change, negative = inhibition; AID 540253, 2011; Snurportin-1 (Homo sapiens) + GTP-binding nuclear protein Ran (Homo sapiens) + Importin …; Biochemical FRET Rango-importin beta, RanGTP-induced dissociation; active means falling FRET ratio curve, often poorly fitted, with flat reads before Ran was added; inconclusive means other falling curves, or compound fluorescence or quenching; inactive means flat or rising ratio curve;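 note: potency is the fitted concentration of half-maximal effect; % of control where 0% means no effect; nearly all actives have a fitted effect of over 45% in size; -100% = wells without RanGTP and RCC1; the record marks most hits as doubtful in a second field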
#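 Two FRET readings bracket the reaction: one 5 min after compound meets Rango–importin beta, another 45 min after RanGTP-RCC1 (0.6 uM Ran, 0.2 uM RCC1, 2 mM GTP) is added. Only the second defines inhibition.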
# miR-21 reporter = qHTS Assay for Modulators of miRNAs and/orActivators of miR-21. HeLa miR-21 FLuc reporter, luciferase, 48 h. Potency, µM (highest dose often 38.3 µM), inactives show top-dose reporter change, positive = more light. 340,000 tested, under 10 active. AID 2288, 2010; active = well fitted rising curve with a large enough effect; inconclusive = small, poorly fitted or top-dose-only effect; inactive = no such curve, though single readings can be large or run the other way;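 note: % of control where 0% means no effect; miR-21 action dims this reporter so a rising signal means less miR-21 action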
#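 Using DMEM plus 10% FBS, HeLa miR-21-FLuc cells are incubated with test compounds (final up to about 40uM) for 48 hours; firefly luciferase signal is then imaged following reagent-mediated lysis.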
# GLA inh pH 4.5 = qHTS Assay for Inhibitors of Human alpha-Galactosidase at pH 4.5; Alpha-galactosidase A (Homo sapiens), P06280; purified enzyme, 4-MU-alpha-Gal fluorescence, pH 4.5; activity change, negative = inhibition, % at 105 µM; 230,000 tested, under 10 active; inconclusive = small, poorly fitted or top-dose-only inhibition, or a rising curve; inactive = flat fitted curve, though single readings scatter; no compound was filed as active;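 note: 0% = full activity with enzyme and -100% = basal without enzyme; dose as in the result columns while the protocol names 77 µM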
# Target sequence (P06280 whole entry, looked up): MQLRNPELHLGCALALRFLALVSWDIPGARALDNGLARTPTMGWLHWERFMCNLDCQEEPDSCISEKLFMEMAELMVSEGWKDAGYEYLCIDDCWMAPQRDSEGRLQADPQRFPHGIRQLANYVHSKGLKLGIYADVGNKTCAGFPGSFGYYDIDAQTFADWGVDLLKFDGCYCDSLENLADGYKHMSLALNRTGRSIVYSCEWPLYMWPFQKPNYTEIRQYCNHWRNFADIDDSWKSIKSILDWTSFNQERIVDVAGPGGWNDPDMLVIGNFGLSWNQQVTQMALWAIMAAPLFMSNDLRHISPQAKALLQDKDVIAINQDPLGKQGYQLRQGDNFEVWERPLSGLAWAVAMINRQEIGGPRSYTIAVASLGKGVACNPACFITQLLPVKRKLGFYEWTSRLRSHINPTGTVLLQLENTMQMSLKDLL
# Rango complex inh = qHTS Assay for Inhibitors of Rango (Ran-regulated importin-beta cargo) - Importin beta complex formation | Rango CFP/YFP FRET sensor + importin beta, 45 min | Potency, µM (series often up to 92.2 µM), for the others: at the top dose inhibition of complex formation | hit rate 0.031% among 340,000; active = rising FRET ratio curve, often small or poorly fitted; inconclusive = mostly compound fluorescence or quenching in the first reads; inactive = flat curves in all reads;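 note: potency is the fitted concentration of half-maximal effect; 0% = DMSO wells and 100% = buffer wells lacking importin beta; nearly all actives have a fitted effect of over 15% in size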
#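 Inhibition scored from the CFP 486 nm/YFP 530 nm FRET ratio 45 min after adding 0.125 microM importin beta to 50 nM Rango biosensor preincubated 5 min with compound (room temperature, PBS with DTT, Tween-20, BSA). No-importin wells as positive control.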
# * = called active by the depositor; u = inconclusive; x = no result given; & = joins results of further samples. A portion of the library, so the mix of outcomes need not match the whole.
Compound	Rango complex inh	GLA inh pH 4.5	miR-21 reporter	Rango release inh
CCCC(=O)NC(NC(=S)Nc1ccc(N=Nc2ccccc2)cc1)C(Cl)(Cl)Cl (centres undefined)	-0.3%	2	29%	-15%
CCOc1ccc(NC(=O)c2ccccc2NC(=O)CNC2CCCC(C)C2C)cc1 (centres undefined)	-4.6%	x	x	16%
O=C(Nc1cccc(C(F)(F)F)c1)C1CCN(S(=O)(=O)c2cnc[nH]2)CC1	-0.4%	-10	-4%	-11%
O=C(CN1CCc2ccccc2C1)Nc1ccc(Br)cc1	0.2%	-1	-10%	-1%
COc1ccccc1C(=O)Nc1ccnn1C1CCN(CCC(C)c2ccc(C)o2)CC1 (centres undefined)	-3.9%	x	-2%	-11%
COc1cc(C2c3c(oc4ccccc4c3=O)C(=O)N2Cc2ccco2)ccc1O (centres undefined)	-1.5%	0	-3%	17%
COc1ccc(C)cc1NC(=O)C(OC(=O)c1ccc([N+](=O)[O-])o1)c1ccccc1 (centres undefined)	-0.8%	-9	-2%	-13%
Cc1ccc(OCCC(=O)OCC(=O)N2CC(=O)Nc3ccccc32)cc1	0.4%	x	x	-18%
COc1ccc(-c2nn(C)c(=O)c3ccccc23)cc1NC(=O)COc1ccccc1	5.7%	10	-2%	-6%
CCOC(=O)c1[nH]cnc1C(=O)Nc1ccc(C)cc1	-2.3%	-4	2%	10%
c1nnc2c3c4c(sc3ncn12)CCC4	-5.8%	-6	0%	1%
CCOc1cccc(N(C(=O)C2COc3ccccc3O2)C(C(=O)NC2CCCCC2)c2ccc(O)cc2)c1 (centres undefined)	-0.9%	6	-1%	4%
O=C(c1ccc2ncsc2c1)N1CCCC(C(F)(F)F)C1 (centres undefined)	-1.6%	x	x	-4%
O=C(CCCN=C1NS(=O)(=O)c2ccccc21)OCC(=O)c1ccc(Br)cc1	-3.1%	x	-2%	-1%
Cc1ccc([N+](=O)[O-])cc1S(=O)(=O)Nc1ccc(-c2ccc(N3CCCC3)nn2)cc1	-1.4%	x	x	11%
CCn1c(=O)cc(OCC(=O)N(C)c2ccccc2F)c2ccccc21	-1.5%	-2	-15%	-21%
COC(=O)c1ccc(Cc2ccc(C(=O)OC)o2)o1	0.1%	6	-4%	0%
Cc1ccc2c(c1)c1ncnc(N3CCc4ccccc4C3)c1n2C	-1.9%	1	-38%	-19%
CC1CCN(S(=O)(=O)N2CCC(C(=O)NCCc3ccccc3)CC2)CC1	-0.1%	x	-4%	15%
CN(Cc1nc2ccccc2s1)C(=O)c1ccc(F)cc1	-0.4%	x	-22%	7%
O=C(CN1C(=O)C2C3C=CC(C3)C2C1=O)Nc1nc2ccccc2[nH]1 (centres undefined)	0.3%	5	-19%	-1%
O=C(O)COc1ccc(/C=N/NC(=O)c2cccc3ccccc23)cc1	-1.0%	x	-2%	6%
CN(CC(=O)Nc1cccc(F)c1)C(=O)c1ccc(N2CCCC2)c([N+](=O)[O-])c1	-0.4%	x	x	-19%
O=C(CCCc1c[nH]c2ccccc12)Nc1ccc2ccccc2c1	-0.5%	-8	-19%	-16%
Cc1ccc(C)c(S(=O)(=O)NCc2ccc3c(c2)OCO3)c1	-0.6%	x	2%	0%
COc1ccc(S(=O)(=O)N(CC(=O)NCc2ccco2)c2ccccc2OC)cc1	3.6%	x	4%	-4%
CCC1CN(C(=O)NCc2ccc(C)cc2)c2ccccc2O1 (centres undefined)	-2.6%	x	-3%&25%	1%
CCCCCCCC1CC(=O)C=C(C)C1C(=O)OCC (centres undefined)	-0.1%	-2	1%	7%
CCCn1c(N)c(C(=O)CSc2nnc(-c3cccnc3)n2-c2ccc(C)cc2C)c(=O)[nH]c1=O	3.8%	1	0%	-2%
O=C(CCC(=O)N(CC(=O)NC1CCCCC1)c1ccc(F)cc1)Nc1nccs1	-2.0%	x	-3%	6%
CC1=Nn2c(nc(-c3ccccc3)c2-c2ccccc2)N(CC(N)=O)C(=O)C1	0.0%	4	2%	2%
CCOC(=O)c1sc(N)c(C#N)c1CSc1nc2ccc(C)cc2[nH]1	1.1%	7	-12%	29%
O=C(CCCC(=O)N(c1cccc(F)c1)C(C(=O)NC1CCCC1)c1ccc(O)cc1)Nc1ccccn1 (centres undefined)	0.1%	x	-2%	3%
COc1ccc([N+](=O)[O-])cc1NC(=O)Cn1ccc(C(F)(F)F)n1	2.0%	3	0%	11%
Cc1ccc(CCNC(=O)C2CC(c3ccccc3C(F)(F)F)=NO2)cc1 (centres undefined)	-7.0%	1	0%	-14%
COCc1nnc(NC(=O)c2ccc(S(=O)(=O)N(C)c3ccccc3)cc2)o1	-0.1%	2	20%	-1%
O=C(Nc1ccc2nc3n(c(=O)c2c1)CCCC3)c1cncc(Br)c1	0.2%	x	x	3%
COc1cccc(/C=C/C(=O)OCC(=O)Nc2ccc(S(=O)(=O)N3CCCC3)cc2)c1	0.2%	4	2%	3%
CCCC[C@@H]1CCCO[C@@](C(=O)NCc2ccc(C)o2)(C(F)(F)F)C1	-0.2%	x	x	-4%
CCOC(=O)Cn1nnnc1CN(Cc1ccc(OC)cc1)Cc1cc2cc(C)cc(C)c2[nH]c1=O	-0.2%	-2	-6%	10%
O=C(/C=C/c1cccs1)Nc1ccc(S(=O)(=O)Nc2ncccn2)cc1	1.4%	0	-14%	7%
COc1cccc(CN2CCN(CC(=O)NCCc3ccccc3)CC2)c1	3.5%	x	-4%	1%
CCOC(=O)C[C@H]1c2ccc(C(F)(F)F)cc2S(=O)(=O)N1Cc1ccccc1	5.2%	x	x	-7%
CCN(CC)N=Nc1ccc(S(=O)(=O)Nc2c(C)n(C)n(-c3ccccc3)c2=O)cc1	1.3%	x	-2%	u
CCOc1ccc(S(=O)(=O)NCCC(=O)NCCOc2ccccc2)cc1	-3.4%	x	x	9%
Cc1csc(NC(=O)CSCC(=O)Nc2ccccc2)n1	0.9%	1	-4%	-17%
CCC(C)(C)NC(=O)CN(C(=O)C(=O)Nc1ccc2c(c1)OCCO2)C(C)(C)CC	-1.8%	3	4%	0%
CCNC(=O)CC1C(=O)N(c2ccc(OC)cc2)C(=S)N1CCc1ccncc1 (centres undefined)	x	11	-2%	x
COc1ccc(/C=N/NC(=O)C2CC2)c(OC)c1OC	2.0%	x	0%	1%
CCn1c(C(O)c2ccc(C)cc2)nc2ccccc21 (centres undefined)	-4.0%	-1	0%	1%
O=C(/C=C/c1ccc(F)cc1)NCc1ccco1	u	15	-50%	-3%
CCCCCN(C(=O)CCC(=O)OC(C)C(=O)c1ccc(CC)cc1)c1c(N)n(CCCC)c(=O)[nH]c1=O (centres undefined)	-2.3%	x	x	-3%
CC(NS(=O)(=O)c1ccc(F)cc1)C(c1cccs1)N1CCOCC1 (centres undefined)	1.6%	7	-7%	1%
O=c1[nH]c2c(oc3ccccc32)c(=O)n1Cc1ccccc1	1.8%	x	5%	-1%
O=C(CSc1nnc(Cn2cnc3ccccc32)o1)c1ccccc1	-0.2%	4	16%	-6%
Cn1cc(S(=O)(=O)N2CCOCC2)cc1C(=O)NCc1ccc(Cl)cc1	2.9%	x	0%	-16%
O=c1c(-c2ccnn2-c2ccccc2F)cnc2n1CCS2	-0.5%	-2	-14%	-14%
C[C@@H]1CN(C(=O)c2ccc(OC3CCN(S(=O)(=O)N(C)C)CC3)cc2)C[C@H](C)O1	-0.3%	x	2%	-15%
CC(C)CC(=O)NC1(C(F)(F)F)NC(=O)N(c2ccccc2)C1=O (centres undefined)	1.9%	5	-1%	-8%
Cc1cccc(NC(=O)c2sc3nc4c(c(-c5ccco5)c3c2N)CCC4)c1	u	1	-14%	u

# Results in miR-21 reporter and Rango complex inh, for five of the compounds above:
SMILES,miR-21 reporter,Rango complex inh
O=C(CCCC(=O)N(c1cccc(F)c1)C(C(=O)NC1CCCC1)c1ccc(O)cc1)Nc1ccccn1 (centres undefined),-2%,0.1%
COc1cccc(/C=C/C(=O)OCC(=O)Nc2ccc(S(=O)(=O)N3CCCC3)cc2)c1,2%,0.2%
O=C(/C=C/c1cccs1)Nc1ccc(S(=O)(=O)Nc2ncccn2)cc1,-14%,1.4%
CCCCCN(C(=O)CCC(=O)OC(C)C(=O)c1ccc(CC)cc1)c1c(N)n(CCCC)c(=O)[nH]c1=O (centres undefined),x,-2.3%
CCOC(=O)C[C@H]1c2ccc(C(F)(F)F)cc2S(=O)(=O)N1Cc1ccccc1,x,5.2%

# (more compounds)
Compound	Rango complex inh	GLA inh pH 4.5	miR-21 reporter	Rango release inh
COc1ccc(CC(=O)Oc2ccc(C(C)C)cc2)cc1S(=O)(=O)N1CCOCC1	-0.3%	x	x	-14%
COc1ccc([N+](=O)[O-])cc1NC(=O)CS(=O)(=O)c1ccc(C)cc1	-2.4%	-8	-1%	7%
Cc1c(C(=O)O)sc2nc(/C=C/c3ccccc3OC(F)F)[nH]c(=O)c12	u	x	-2%	u
COCC(=O)N1CCC(Oc2ccc(C(=O)N3C[C@@H](C)O[C@@H](C)C3)cc2)CC1	-4.3%	x	-5%	1%
Cc1nn(CC(O)COc2ccc3c(c2)CCC3)c(C)c1Br (centres undefined)	1.9%	5	-8%	-18%
CCN(CC)C(=O)Cn1nc(-c2ccncc2)nc1SCC(=O)Nc1ccc(OC)cc1	0.4%	x	-6%	2%
Cc1ccc(Sc2ccc(NC(=O)CCN3C(=O)NC4(CCCC4)C3=O)cc2)c(C)c1	-0.9%	x	x	4%
O=C1CC(N(Cc2cccs2)C(=O)Nc2ccccc2)C(=O)N1c1ccc(Cl)cc1 (centres undefined)	0.0%	-4	-2%	-1%
CCOc1ccc(OCCNC(=O)C(NC(=O)c2c(F)cccc2F)C(C)C)cc1 (centres undefined)	5.0%	x	x	-1%
COC(=O)c1ccc(Cl)cc1NC(=O)/C=C/c1ccc(C)o1	0.7%	2	0%	-7%
COc1ccccc1CN1CC(C(=O)NCCc2ncccc2C)CCC1=O (centres undefined)	u	x	-3%	-27%
C/C(=N\NC(=O)c1ccc(Cn2cc(Br)cn2)o1)c1ccc(NC(=O)c2ccoc2C)cc1	-4.2%	x	-1%	7%
COc1ccc(C(=O)N2N=C(c3cccc(NS(C)(=O)=O)c3)CC2c2cccs2)cc1 (centres undefined)	4.1%	x	-8%	-2%
Cn1nc(-c2ccccc2)c(C(O)c2ccccc2C(F)(F)F)c1Cl (centres undefined)	-3.0%	-28	3%	-7%
CCOc1ccc2nc(SCC(=O)c3ccc(Cl)s3)sc2c1	-3.4%	0	-13%	1%
Cc1cc(CNC(=S)Nc2ccc(S(=O)(=O)Nc3ncccn3)cc2)nn1C	-3.0%	x	0%	0%
COC(=O)c1cc(NC(=O)Cn2c(=O)oc3ccccc32)cc(C(=O)OC)c1	3.2%	x	0%	-1%
C=CCN1CC(=O)N2Cc3[nH]c4ccccc4c3C[C@H]2C1=O	-0.1%	x	-8%	-9%
CC/C(=N/O)c1cnnc(SC)n1	2.1%	-1	-20%	15%
O=C(CCNC(=O)C1CCN(S(=O)(=O)c2ccc(F)cc2)CC1)NCc1ccc(F)cc1	4.1%	x	2%	-9%

# Reformatted with each value named: part of the list above.
SMILES: COC(=O)c1ccc(Cl)cc1NC(=O)/C=C/c1ccc(C)o1
  Rango complex inh: 0.7%
  GLA inh pH 4.5: 2
  miR-21 reporter: 0%
  Rango release inh: -7%

SMILES: O=C1CC(N(Cc2cccs2)C(=O)Nc2ccccc2)C(=O)N1c1ccc(Cl)cc1 (centres undefined)
  Rango complex inh: 0.0%
  GLA inh pH 4.5: -4
  miR-21 reporter: -2%
  Rango release inh: -1%

SMILES: Cn1nc(-c2ccccc2)c(C(O)c2ccccc2C(F)(F)F)c1Cl (centres undefined)
  Rango complex inh: -3.0%
  GLA inh pH 4.5: -28
  miR-21 reporter: 3%
  Rango release inh: -7%
